2A StopGo: High Throughput Screening for Foot and Mouth Disease Virus Antivirals. human cells with a luciferase reporter of 2A StopGo recoding; control for the full effect not named in the record. Potency, µM (highest dose often 57.9 µM), for inactives: top-dose signal change, negative = less light. actives 1.2% (n = 410,000); active = well fitted falling curve with a large enough effect; inconclusive = small, poorly fitted or top-dose-only effect; inactive = no such curve, though single readings can be large or run the other way; tested in HEK293T cells; note: % is set by controls: 0 for no effect and ±100 for the full control effect; nearly all actives have a fitted effect of over 45% in size; luciferase light after 4 h
RE007 growth inh: qHTS Assay for Inhibitors of the HIV-1 protein Vpr; S. pombe RE007 Vpr strain, BacTiter-Glo ATP luminescence, 24 h; control for the full effect not named in the record; Potency, µM (titrated, usually from 92.2 µM), for the others: at the highest dose activity change, negative = less growth; actives 0.21% (n = 360,000); active = well fitted falling curve with a large enough effect; inconclusive = small, poorly fitted or top-dose-only effect; inactive = no such curve, though single readings can be large or run the other way;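 note: % is set by controls: 0 for no effect and ±100 for the full control effect; nearly all actives have a fitted effect of over 50% in size; the assay follows cell death caused by Vpr and the record does not say whether a fall means rescue or toxicity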
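Fission yeast RE007 carrying one integrated HIV-1 vpr copy, seeded at OD 0.01 in PMG+AL medium with 23 nL pinned compound. Grown 24 h at 30 degrees; viability read by BacTiter-Glo luminescence after 5 min.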
SARS PLP yeast: qHTS of Yeast-based Assay for SARS-CoV PLP; S. cerevisiae expressing SARS-CoV PLpro, growth rescue; control for the full effect not named in the record; Potency, µM (titrated, usually from 32.9 µM), inactives show top-dose activity, positive = growth rescue; actives 0.19% (n = 330,000); note: 0% is about no effect; nearly all actives have a fitted effect of over 55% in size; growth read by luminescence after 48 h
NS1 function inh: qHTS Assay for Inhibitors of Influenza NS1 Protein Function; S. cerevisiae slowed by influenza A NS1, growth recovery by OD600; Potency, µM (highest dose often 46.1 µM), inactives show at the top dose activity, positive = more growth; actives 0.4% (n = 270,000); AID 2326, 2010; note: actives are rising curves; nearly all actives have a fitted effect of over 50% in size
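Growth recovery, yeast-based: influenza A NS1 expressed in S. cerevisiae causes slow growth, and suppressors are detected by OD600. The parent strain without NS1 is used as positive control.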
MARV entry inh: qHTS for inhibitors of binding or entry into cells for Marburg Virus. Marburg virus pseudotyped entry inhibition, cell reporter; control for the full effect not named in the record; about a third of the inactives were read at about 46 µM. Potency, µM (highest dose often 37.8 µM), for the others: at the top dose activity change, negative = inhibition, actives largely listed as inhibitors. actives 1.8% (n = 300,000). AID 540276, 2011; active = well fitted inhibition curve with a large enough effect; inconclusive = small, poorly fitted or top-dose-only effect, or effect the other way; inactive = flat fitted curve, though single readings scatter; tested in HEK293 cells; about a fifth of its hits are not listed in these tables; note: % is set by controls: 0 for no effect and ±100 for the full control effect; luciferase read-out
Cruzain noTriton: qHTS Assay for Promiscuous and Specific Inhibitors of Cruzain (without detergent); Cruzipain (Trypanosoma cruzi), P25779; actives 2.3% (n = 200,000); purified cruzain, Z-FR-AMC fluorescence, no detergent; Potency, µM, inactives show max response, negative = inhibition, most hits filed as inhibitors; active = well fitted curve in the direction sought with a large enough effect; inconclusive = small, poorly fitted or top-dose-only effect, or another doubt; inactive = no such curve, though single readings can be large; an effect the other way counts as inactive or inconclusive;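 note: plate controls were enzyme without inhibitor for no effect and buffer without enzyme for full effect; nearly all actives have a fitted effect of over 40% in size; top concentration of the series not given in the record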
Target sequence (P25779 123-467 limits assumed): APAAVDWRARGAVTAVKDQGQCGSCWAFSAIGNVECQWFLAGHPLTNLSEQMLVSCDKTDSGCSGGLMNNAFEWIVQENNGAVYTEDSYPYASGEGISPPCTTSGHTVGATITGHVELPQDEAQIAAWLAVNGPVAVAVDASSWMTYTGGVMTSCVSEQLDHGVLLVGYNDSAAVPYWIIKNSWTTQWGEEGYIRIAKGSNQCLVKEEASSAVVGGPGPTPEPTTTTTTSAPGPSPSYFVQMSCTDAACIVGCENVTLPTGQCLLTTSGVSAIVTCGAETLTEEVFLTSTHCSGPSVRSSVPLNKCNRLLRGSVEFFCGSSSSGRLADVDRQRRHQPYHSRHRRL
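Purified cruzain at 1.5 nM, pre-incubated 15 min with compound at room temperature in 100 mM sodium acetate pH 5.5, 5 mM DTT, 0.00005% Triton X-100. Reaction started with 2 uM Z-FR-AMC; AMC fluorescence increase over 60 s gives rate.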
LASV entry inh: qHTS for Inhibitors of binding or entry into cells for Lassa Virus. actives 1.2% (n = 300,000). Potency, µM (top dose mostly 37.9 µM), without a hit: top-dose activity change, negative = inhibition, hits mostly inhibitors. Lassa virus pseudotype entry inhibition, cell reporter; control for the full effect not named in the record; active means well fitted inhibition curve with a large enough effect; inconclusive means small, poorly fitted or top-dose-only effect, or effect the other way; inactive means flat fitted curve, though single readings scatter; tested in HEK293 cells; note: % is set by controls: 0 for no effect and ±100 for the full control effect; nearly all actives have a fitted effect of over 50% in size; luciferase read-out
Cruzain inh Det: qHTS Assay for Promiscuous and Specific Inhibitors of Cruzain (with detergent) | Cruzipain (Trypanosoma cruzi), P25779 | purified cruzain, Z-FR-AMC fluorescence, 0.01% Triton | Potency, µM, without a hit: max response, negative = inhibition, most hits filed as inhibitors | actives 0.43% (n = 200,000); active = well fitted curve in the direction sought with a large enough effect; inconclusive = small, poorly fitted or top-dose-only effect, or another doubt; inactive = no such curve, though single readings can be large; an effect the other way counts as inactive or inconclusive;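 note: plate controls were neutral wells for no effect and buffer without enzyme for full effect; nearly all actives have a fitted effect of over 40% in size; top concentration of the series not given in the record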
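15 min RT preincubation of 1.5 nM cruzain with compound, then 2 uM Z-FR-AMC added; kinetic AMC fluorescence, 60 s delta. Triton X-100 0.01%, pH 5.5.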
* marks the source's active call; other numbers are inactive results; ? = inconclusive; / = not tested or not shown; & = joins results of further samples; [ ] = another dose, or the depositor's remark. Unless noted, calls come from the whole dose curve; as a rule, active means well fitted rising curve with a large enough effect; inconclusive means small, poorly fitted or top-dose-only effect; inactive means no such curve, though single readings can be large or run the other way. Potency is the fitted concentration of half-maximal effect.

SMILES | 2A StopGo | RE007 growth inh | SARS PLP yeast | NS1 function inh | MARV entry inh | Cruzain noTriton | LASV entry inh | Cruzain inh Det
O=C(/C=C/c1ccc(Br)o1)NCc1ccccc1 | 8% | -27% | 0% | 1% | / | / | / | /
COc1ccc(C(=O)CSc2nnc(-c3cnccn3)n2Cc2ccco2)cc1 | 59%[activator] | 3% | -1% | -48% | 2% | 14% | ? | -7.7%
CCOc1ccc(NC(=O)C2CCN(S(=O)(=O)c3c(C)noc3/C=C/c3ccco3)CC2)cc1 | -27% | / | / | / | ? | -4% | 5%[46.1 µM] | -11%
CCOC(=O)C(=O)Nc1nnc(C2CCCCC2)s1 | 14% | -8% | 14% | -57% | 0%[46.1 µM] | 0% | 5% | 0.2%
COC(=O)[C@@H](NC(=O)NCCC1=CCCCC1)C(C)C | -14% | -14% | 0% | -3% | -3%[46.1 µM] | / | -25%[46.1 µM] | /
O=c1cc(-c2ccc(F)cc2)oc2ccccc12 | 23% | -6% | / | / | ? | / | 6% | /
COc1ccc(N2CCN(S(=O)(=O)c3cccc4nsnc34)CC2)cc1 | 0% | -2% | 10%[6.58 µM] | -1% | -3% | -5% | 12% | -0.5%
CCCn1c(C(=O)OC)cc2c1ccn2-c1ccc(F)cc1 | -8% | -10% | -24% | -15% | 0% | 5% | -5% | -11%
Cc1cc(NC(=O)CCN2CCC(C(N)=O)CC2)ccc1Br | 5% | 8% | 13% | 13% | -25% | -7% | 15% | -6.1%
O=C(OC(C(=O)NCc1cccs1)c1ccccc1Cl)c1ccco1 (stereo unspecified) | / | 2% | 1% | -53% | -5% | -15% | 3% | -9.3%
Cc1ccc(COC(=O)CCCN=C2NS(=O)(=O)c3ccccc32)cc1 | ? | 15% | 8% | / | 4% | / | -20% | /
Cc1ccc(-c2nc(-c3nccc4ccccc34)oc2-c2ccccc2)cc1 | -2% | / | -1% | -5%&-66% | / | -4% | / | -0.3%
O=C(Nc1cccc(C(F)(F)F)c1)c1cccc(C(=O)Nc2cccc(C(F)(F)F)c2)c1 | -12% | / | / | / | / | 6% | ? | -2.6%
COC(=O)c1cc(-c2ccccc2)on1 | 14% | -15% | -4% | -72% | 1% | -1% | 0% | 3.5%
CCCCOC(=O)CN1C(=O)c2ccc(C(=O)OCCCC)cc2C1=O | -15% | -2% | -10% | -38% | 20% | -6% | -16% | -2.7%
CCOc1ccc(C(=O)NCC(=O)OCc2c(C)noc2C)cc1 | 3% | 12% | -19% | -10% | -24% | -4% | -1% | -2.0%
O=C(O)CCC(NC(=O)C1CCCN1C(=O)OCc1ccccc1)C(=O)O (stereo unspecified) | 45%[activator] | 10% | 1% | 2% | 4%[46.1 µM] | / | -3%[46.1 µM] | /
Cc1sc(NC(=O)c2ccc(OCC(C)C)cc2)c(C(N)=O)c1-c1ccc(Cl)cc1Cl | ? | 4% | 2% | 10% | ? | 10µM* | -22% | ?
COc1ccc(NS(=O)(=O)c2ccc(NC(=S)NC(=O)CC(C)C)cc2)cc1 | 22% | 6% | -5% | -51% | ? | -9% | ? | -11%
CCCCN(C)CCCNC(=O)c1cc(-c2cccs2)nc2ccccc12 | -21% | -8% | -1% | -2% | ? | / | ? | /
O=C(Nc1ccc(N2CCOCC2)cc1Cl)C1CCN(C(=O)OCc2ccccc2)CC1 | -14% | 6% | -1% | -2% | / | / | / | /
O=C(NCCc1c[nH]c2ccccc12)C1CCN(S(=O)(=O)c2ccccc2F)CC1 | 10% | -7% | 0% | -8% | -24%[46.1 µM] | / | ? | /
CCc1ccc(C2c3[nH]c4ccccc4c3CCN2C(=O)c2cc[n+]([O-])cc2)cc1 (stereo unspecified) | ? | 1% | 0% | 4% | / | / | / | /
Cc1ccc(S(=O)(=O)N2CCOCC2)cc1C(=O)NCC1CCCCC1 | -22% | 11% | -2% | / | ? | / | 3% | /
CCOc1ccc(NS(=O)(=O)c2ccc3c(c2)N(C(C)=O)CCS3)cc1 | -11% | 9% | ? | 3% | / | / | / | /
The results go on.
SMILES | 2A StopGo | RE007 growth inh | SARS PLP yeast | NS1 function inh | MARV entry inh | Cruzain noTriton | LASV entry inh | Cruzain inh Det
Cc1ccc([N+](=O)[O-])cc1NC(=O)CN(c1ccccc1)S(=O)(=O)N(C)C | -5% | / | / | / | -13%[46.1 µM] | -4% | -3%[46.1 µM] | -3.9%
CCCCN(CC)S(=O)(=O)c1ccc(C(=O)N=c2sc3cc(NC(C)=O)ccc3n2C)cc1 | -17% | -12% | 14% | 6% | 14% | 16% | -29% | 1.5%
CC1(C)OC(=O)C(=CNCCc2ccc(O)cc2)C(=O)O1 | -5% | 18% | 0% | / | 3%[46.1 µM] | / | -2%[46.1 µM] | /
Brc1cnc(N2CCCC2)nc1N1CCOCC1 | -17% | -17% | -3% | -19% | -17%&0% | 1% | 0% | 0.1%
CCOC(=O)c1noc2nc(C)n(CC(=O)Nc3ccc(Br)cc3C)c(=O)c12 | -12% | / | / | / | / | 6% | 12%[46.1 µM] | -1.9%
COc1ccc(S(=O)(=O)N2CCN(Cc3ccc4c(c3)OCO4)CC2)cc1OC | -23% | / | / | / | 3%[46.1 µM] | -7% | -20%[46.1 µM] | -0.4%
Cc1ccc(C)c(N2CCN(C(=O)C3CCCN(S(=O)(=O)c4cccc5nsnc45)C3)CC2)c1 (stereo unspecified) | ? | / | / | / | ? | -4% | ? | -1.3%
CCOC(=O)c1c(C)c(C(=O)NCc2ccco2)c(C)n1C | -14% | 8% | -1% | 6% | / | / | / | /
Cc1ccc(NC(=O)/C=C/C(=O)O)c([N+](=O)[O-])c1 | -1% | -15% | -12% | -2% | -3% | 5% | ? | 2.0%
CCn1c(C)nc2cc(C(=O)N=Nc3c(O)[nH]c4c(C)cc(C)cc34)ccc21 | / | / | 17% | 11% | -12% | ? | 26% | -1.3%
CCc1ccc(NC(=O)Cn2nc(C(F)(F)F)c3c2CCC3)cc1 | 6% | 3% | -3% | 8% | ? | -18% | -7% | -2.7%
O=C(Cc1cccs1)N/N=C/C=C/c1ccccc1 | -26% | -7% | -2% | 6% | 20% | ? | 3% | -1.7%
COc1ccccc1CNC(=O)C1CCN(S(=O)(=O)Cc2ccccc2)CC1 | -22% | / | / | / | 9%[46.1 µM] | 2% | 5%[46.1 µM] | -2.2%
CN1c2ccccc2C(=O)/C(=C\Nc2ccc(F)cc2F)S1(=O)=O | -13% | 2% | 0% | 7% | ? | / | 5% | /
CC(NC(=O)CC(c1ccccc1)c1cc(Cl)ccc1O)c1ccccc1 (stereo unspecified) | ? | -10% | 4% | -32% | -24% | 21% | ? | -8.2%
Cc1ccc(N(C(=O)Cn2nnc3ccccc32)C(C(=O)NCc2ccccc2)c2ccccn2)cc1 (stereo unspecified) | 3% | -1% | 7% | -5% | ? | 2% | -16% | -2.3%
COc1cccc(N2CCN(C3CC(=O)N(c4ccc(C)c(Cl)c4)C3=O)CC2)c1 (stereo unspecified) | -19% | 16% | -4% | -9% | 13% | ? | -1% | 0.9%
C=CCn1c(C)c(/C=C/c2cc[n+](C)cc2)c2ccccc21 | ? | -26% | -2% | 3% | 2.8µM* | / | ? | /
Cc1ccc(O)c(Nc2c3ccccc3nc3ccccc23)c1 | ? | ? | -11% | -53% | ? | / | ? | /
O=C1CCN(Cc2ccc(O)cc2)CCN1[C@H](CO)Cc1ccccc1 | -10% | -10% | 1% | 2% | / | / | / | /
Cc1ccc(C2CC(=O)Nc3sc(C(N)=O)c(N)c32)cc1 (stereo unspecified) | -20% | -12% | / | ? | 1% | 7% | -1% | 0.1%
Cc1ccc2c(c1)c(=O)c1ccccc1n2CCCC(=O)Nc1ccc(F)cc1F | -10% | / | / | / | / | 3% | 3%[46.1 µM] | -1.1%
Cc1ccc(S(=O)(=O)N(C)c2ccccc2C(=O)Nc2ccc(F)cc2F)cc1 | -2% | -6% | -6% | -8% | / | / | / | /
O=C1N(c2ccc(Cl)c(Cl)c2)CN(Cc2ccccc2)CN1n1cnnc1 | 2% | -13% | 1% | -37% | 15% | -1% | -9% | -6.2%
CCN(CC(=O)Nc1ccc(Br)cc1)CC(=O)Nc1cc(C)on1 | -9% | -13% | 2% | / | -9% | / | 25% | /
More results
SMILES | 2A StopGo | RE007 growth inh | SARS PLP yeast | NS1 function inh | MARV entry inh | Cruzain noTriton | LASV entry inh | Cruzain inh Det
O=C(NCc1ccccc1)c1nc(S(=O)(=O)Cc2ccccc2)ncc1Cl | 32µM* | -6% | -13% | -11% | -7%&-7%[46.1 µM] | -4% | ? | -2.0%
N#CC1(NC(=O)COC(=O)c2cccc(-n3cnnn3)c2)CCCCC1 | -15% | -29% | -4% | / | -6% | / | 4% | /
COc1ccc(CCNC(=O)CN2C(=O)CCSc3ccccc32)c(OC)c1 | -9% | -2% | 1% | -8% | 11%[46.1 µM] | / | -9%[46.1 µM] | /
CCOC(=O)C1=C(C)c2ccccc2OC1(C)C(=O)OCC (stereo unspecified) | -23% | -4% | -14% | / | / | 2% | / | 1.7%
Cc1ccccc1C(=O)OCn1nnc2ccccc2c1=O | -3% | 5% | ? | -10% | -4% | ? | 1% | -3.3%
Cn1c(=O)oc2cc(S(=O)(=O)N3CCC(C(=O)Nc4ccc(F)c(Cl)c4)CC3)ccc21 | ? | / | / | / | ? | 3% | 15%[46.1 µM] | -1.3%
Cc1ccc(N(C)S(=O)(=O)c2cccc(C(=O)Oc3ccc4c(C)cc(=O)oc4c3)c2)cc1 | -5% | 20% | -1% | 0% | 2% | -10% | 1% | -0.1%
Cc1ccc(Cn2nnnc2CN2CCC(NC(=O)c3ccccc3F)CC2)cc1 | -23% | 12% | 0% | -12% | -1%[46.1 µM] | -4% | -29% | 2.8%
CCN(CC)CCNc1nc2ccccc2n1C | 9% | -7% | ? | 3% | 19%[46.1 µM] | -19% | 15% | -2.7%
CCCn1nc(C(=O)OCn2nnc3ccccc3c2=O)c2ccccc2c1=O | -5% | 20% | -7% | 28% | 41% | ? | -1% | -6.0%
CCc1ccc(Sc2cc(C(=O)NCCN3CCOCC3)c3ccccc3n2)cc1 | -23% | 5% | -29% | -5% | -6% | 7% | ? | -4.2%

Screening data from PubChem BioAssay.

Outcome played no part in choosing rows; overall some 4.7% were active at least once.
